Screens deposited in PubChem by several laboratories.
Mtb H37Rv = M. tuberculosis H37Rv growth inhibitors, H37Rv strain (AID 1626); M. tuberculosis H37Rv growth inhibition; higher % means a stronger effect; inhibition, % at 10 µM, or IC50 in µM where a hit was titrated; 220,000 tested, 0.95% active;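 active means confirmed in a dose series; inconclusive means inhibition above 80% but not taken into the dose series; inactive means below 80% or under 30% at every dose of the series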;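 further: bacteria incubated seven days before Alamar blue readout; 0% = bacteria only wells and 100% = bacteria with antibiotic wells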
Mtb bLac sens = beta-lactam sensitization of Mtb H37Rv. M. tuberculosis H37Rv growth with meropenem, percent inhibition; hits of this screen are not shown here. inhibition, % at 25 µM. 330,000 tested, 0.27% active. AID 434955;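 active means about 74% or more and at least 40 points above the plate without the antibiotic, then above 30% in a dose series; inconclusive means first-round hits that could not be retested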;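 further: growth measured after seven days incubation then overnight dye step; 0% = bacteria only wells and 100% = bacteria with antibiotic; twin plates without the antibiotic show which effects depend on it; some results filed as inactive read as strong as hits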
Arbovirus anti = antivirals against arbovirus infection; arbovirus infection cell-based antiviral screen; inhibition, % at 10 µM; 200,000 tested, 0.37% active;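 active means inhibition from about 30%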;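 further: bluetongue infection of BSR cells; cell survival read as ATP light after 72 h; 0% = infected wells without compound and 100% = uninfected wells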
YopH PTP inh = YopH (Yersinia) phosphatase inhibition; inhibition, %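 (about 10 µM by stock and volumes)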; fluorescence Ex485/Em525; 140,000 tested, 0.16% active;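 active means inhibition of 50% or more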;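 further: controls were vehicle for no effect and minimum signal wells for full effect; inactives centre near -20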
RecA intein inh = Mtb RecA intein splicing inhibition; P9WHJ3; cell-free RecA intein splicing, fluorescence; inhibition, %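 (about 9 µM by stock and volumes)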; 290,000 tested, 0.75% active; in the data active means inhibition above about 30%; inconclusive means no clear call, values can overlap the other calls;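 further: 0% = vehicle wells and 100% = reference inhibitor control wells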
Target sequence (P9WHJ3 whole entry, looked up): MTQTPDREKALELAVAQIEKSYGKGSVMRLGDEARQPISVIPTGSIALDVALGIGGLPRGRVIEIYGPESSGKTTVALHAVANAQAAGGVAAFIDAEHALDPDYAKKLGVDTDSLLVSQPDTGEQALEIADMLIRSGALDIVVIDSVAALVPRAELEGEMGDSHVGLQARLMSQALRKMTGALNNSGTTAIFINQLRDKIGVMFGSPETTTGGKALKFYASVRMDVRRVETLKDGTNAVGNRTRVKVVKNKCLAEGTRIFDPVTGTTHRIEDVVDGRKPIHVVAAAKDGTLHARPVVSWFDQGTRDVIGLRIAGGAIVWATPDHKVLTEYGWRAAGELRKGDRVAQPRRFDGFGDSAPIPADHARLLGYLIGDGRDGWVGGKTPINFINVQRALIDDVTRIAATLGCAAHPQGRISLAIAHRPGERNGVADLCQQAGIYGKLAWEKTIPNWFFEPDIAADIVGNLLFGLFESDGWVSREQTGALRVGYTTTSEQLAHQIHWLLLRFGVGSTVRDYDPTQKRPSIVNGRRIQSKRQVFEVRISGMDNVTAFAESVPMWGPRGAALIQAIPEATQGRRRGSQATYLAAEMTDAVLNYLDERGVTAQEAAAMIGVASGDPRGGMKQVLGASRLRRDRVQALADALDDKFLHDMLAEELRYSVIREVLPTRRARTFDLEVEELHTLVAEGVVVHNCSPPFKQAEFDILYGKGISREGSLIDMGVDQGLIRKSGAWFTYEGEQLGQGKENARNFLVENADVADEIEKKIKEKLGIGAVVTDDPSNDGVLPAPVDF
Arbovirus anti repeat = further read-out of Arbovirus anti, marked with its call; inhibition, %; measured here: 10K subset replicate screen; many hits read low in the repeat;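 first of two repeat runs on a subset; 0% = infected and 100% = uninfected wells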
An asterisk follows results filed as active; u = inconclusive; x = no result given; & = joins results of further samples. This is a subset (hit frequency here may not be typical).

SMILES	Mtb H37Rv	Mtb bLac sens	Arbovirus anti	YopH PTP inh	RecA intein inh	others
Brc1ccc2oc3c(N4CCOCC4)ncnc3c2c1	6%	x	-1	-31	-13
O=C1CC(c2cccc(Oc3ccccc3)c2)NC(=O)N1 (configuration not stated)	-6%	-11	-1	6	-2.9
CC(C)c1nc2c(s1)CCc1onc(-c3ccc(Cl)cc3)c1-2	x	18	x	x	1.8
CC(=O)N1CCc2cc(Br)cc(S(=O)(=O)N3CCCCCC3)c21	0%	-5	8	-36	1.0
COc1ccc(NC(=O)CSc2nnc(-c3ccc(C)cc3)n2N)cc1	3%	4	0	-7	-0.9	Arbovirus anti repeat=5
C[C@H](NC(=O)c1nc[nH]c1C(=O)NC(c1ccccc1)c1ccccc1)C(=O)OC(C)(C)C	3%	0	-22	x	4.1
N#C/C(=C\C=C\c1ccccc1)C(=O)Nc1ccccc1	13%	1	-2	-17	0.6
CCCCN(NC(C)=O)c1nc(Cl)nc(NC(C)C)n1	-4%	0	-2	-39	0.2
COc1ccc(CCNC(=O)CSc2nc(-c3ccco3)cc(C(F)(F)F)n2)cc1	-1%	-6	14	-22	3.4
COC(=O)c1nnn(Cc2ccccc2)c1N	-8%	2	-13	-15	-2.2	Arbovirus anti repeat=-1
Cc1ccc(-c2nn3c(C)nnc3s2)cc1NC(=O)c1ccc(OC(C)C)cc1	5%	7	-18	-27	2.0	Arbovirus anti repeat=-10
OCCNc1nc(Nc2ccccc2Cl)nc(N2CCCC2)n1	0%	12	x	x	1.4
COc1ccc(CN2C(=O)N(c3ccccc3)C(=O)C2CC(=O)Nc2ccccc2)cc1OC (configuration not stated)	-3%	-5	8	x	-3.1
COc1cccc(Sc2nc(-c3ccccc3)ncc2S(C)(=O)=O)c1	x	-5	x	x	2.6
O=C(COC(=O)c1ccc2c(c1)OCCO2)Nc1cccc(S(=O)(=O)N2CCOCC2)c1	-4%	10	4	x	1.2
COc1ccccc1N1CCN(CC(O)COCc2cccs2)CC1 (configuration not stated)	-3%	2	-1	x	0.5
CCOc1cc(/C=C2/C(=N)N3N=C(CC)SC3=NC2=O)ccc1OC(=O)c1ccco1	x	75	x	x	21
CCOC(=O)C1CCc2nc3ccccc3c(=O)n21 (configuration not stated)	-4%	-8	4	-24	-3.3
Cc1onc(-c2ccccc2Cl)c1C(=O)OCC(=O)Nc1ccc2c(c1)OCO2	-10%	u	17	-32	3.0
Cc1sc(=NC(=O)c2ccco2)n(C)c1-c1ccccc1	11%	10	0	-27	2.4
NS(=O)(=O)c1ccc(CNC(=O)c2cc(-c3ccccc3)nc3ccccc23)cc1	0%	9	x	x	-0.4
COc1ccc(NC(=O)C(NC(=O)c2ccc(=O)[nH]c2)c2ccc(OC)cc2)cc1 (configuration not stated)	4%	-5	-4	-21	3.9
COc1ccc(NC(=O)CSc2nc3scc(C)c3c(=O)[nH]2)cc1	x	0	x	x	-4.1
Cc1cc(C)cc(NS(=O)(=O)c2ccc3oc(=O)ccc3c2)c1	13%	-6	5	-14	1.3
CCN(CC)C(=O)CC1(c2ccccc2OC)CCOC(C(C)C)C1 (configuration not stated)	-3%	7	7	1	-0.4
CCOC(=O)c1cccc(NC(=O)c2cccs2)c1	1%	2	-1	-12	6.4
CN1CCN(Cc2nc3c(c(=O)n(C)c(=O)n3C)n2CCCc2ccccc2)CC1	0%	-8	-1	-11	0.7
NS(=O)(=O)c1ccc(N=Cc2c(O)n(-c3ccccc3)c(=O)[nH]c2=O)cc1	-1%	-7	19	x	1.9
NC(=O)c1ccc(NC(=O)COC(=O)CCSc2ccccc2)cc1	1%	-8	x	x	0.4
Cc1ccc(C(C)C)c(OCc2n[nH]c(=S)o2)c1	-7%	9	1	x	1.8
c1ccc(-n2nnc3ccccc32)nc1	-2%	-14	-1	-55	-0.4
CCCc1c(C)c2c(C)[nH]nc2oc1=O	2%	-3	2	-29	41*
Cc1ccc(C)c(N2CCN(C(=O)C3CCCN(S(=O)(=O)c4c(C)noc4C)C3)CC2)c1 (configuration not stated)	12%	83	20	-30	x
Cc1noc(C)c1COc1ccccc1C(=O)N(C)CC(=O)Nc1cccc(F)c1	x	-11	x	x	-0.7
CS(=O)(=O)c1ccc2nc(NC(=O)C3CCCO3)sc2c1 (configuration not stated)	-7%	-5	1	x	2.0
O=C(Nc1cccc(Cl)c1)O/N=C\c1ccncc1	-10%	-9	6	-22	2.4
O=C(COC(=O)c1cc(=O)[nH]c2ccccc12)Nc1nccs1	-2%	-9	x	x	-0.6
CC1CCN(CCCn2c(=S)[nH]c3c(sc4ccccc43)c2=O)CC1	-4%	-9	4	x	27
NC(=O)Cn1c(=O)n(Cc2ccccc2)c(=O)c2cccnc21	x	4	x	x	-0.9
Cc1cc(=O)[nH]c(SCCCOc2ccc(F)cc2)n1	11%	4	4	-9	-1.1
O=C1C2CC=C(Cl)CC2C(=O)N1CCN1CCOCC1 (configuration not stated)	-5%	-6	1	-18	-0.1
c1ccc(-c2nc3cnccn3c2Nc2ccc3c(c2)OCCO3)cc1	-5%	-9	2	-21	0.6
O=C(O)c1cccc(-n2cccc2/C=C2/NC(=O)N(c3ccc(Cl)cc3)C2=O)c1	-2%	x	32*	x	x
COc1ccccc1OCC(=O)O	-11%&-5%	-12&1	5&1	-39&-25	-1.3&-1.3
O=C(Nc1ccc2c(c1)OCO2)c1cn(Cc2ccc(F)cc2)nn1	3%	-10	-32	-12	-3.0

Next section, overlapping the part above by 7 compounds.
SMILES	Mtb H37Rv	Mtb bLac sens	Arbovirus anti	YopH PTP inh	RecA intein inh	others
NC(=O)Cn1c(=O)n(Cc2ccccc2)c(=O)c2cccnc21	x	4	x	x	-0.9
Cc1cc(=O)[nH]c(SCCCOc2ccc(F)cc2)n1	11%	4	4	-9	-1.1
O=C1C2CC=C(Cl)CC2C(=O)N1CCN1CCOCC1 (configuration not stated)	-5%	-6	1	-18	-0.1
c1ccc(-c2nc3cnccn3c2Nc2ccc3c(c2)OCCO3)cc1	-5%	-9	2	-21	0.6
O=C(O)c1cccc(-n2cccc2/C=C2/NC(=O)N(c3ccc(Cl)cc3)C2=O)c1	-2%	x	32*	x	x
COc1ccccc1OCC(=O)O	-11%&-5%	-12&1	5&1	-39&-25	-1.3&-1.3
O=C(Nc1ccc2c(c1)OCO2)c1cn(Cc2ccc(F)cc2)nn1	3%	-10	-32	-12	-3.0
CCc1nc(SCC(=O)Nc2ccc(C(=O)O)cc2)n[nH]1	2%	-3	5	-22	-0.8	Arbovirus anti repeat=4
C=C(C)c1cccc(C(C)(C)NC(=O)NC(c2ccccc2)c2ccc(OC)cc2)c1 (configuration not stated)	7%	-6	1	-21	0.4
COc1ccc(Cl)cc1N1C(=O)[C@@H]2C(c3cccc(OC)c3OC)=NO[C@@H]2C1=O	-16%	-13	-1	-12	-0.6
Cc1ccc(S(=O)(=O)N/N=c2\oc3ccccc3cc2C(=O)Nc2cccc(C)c2)cc1	-2%	5	-2	-9	-0.6
CCOP(=O)(c1ccccc1)C(O)c1ccc(F)cc1 (configuration not stated)	3%	-2	0	-20	-2.5
O=C1C2C3C=CC(C3)C2C(=O)N1Nc1c(Cl)cc(Cl)cc1Cl (configuration not stated)	5%	-10	4	x	0.8
Fc1ccc(-c2n[nH]c(=S)n2-c2ccc3c(c2)OCCO3)cc1	-8%	16	-1	x	2.4
COc1cccc(NC(=O)C2CCN(Cc3cnn(-c4ccccc4)c3-n3cccc3)CC2)c1	3%	16	-30	-20	1.0
CC(C)(C)c1ccc(OCCC(=O)OCC(=O)N2c3ccccc3NC(=O)C2(C)C)cc1	x	8	x	x	15
Cc1cc(C(=O)O)ccc1-c1ccc(/C=C2\NC(=O)N(Cc3ccc(F)cc3)C2=O)o1	2%	88	x	x	-12
CC(C)(C)c1cc(NC(=O)C2CCCO2)no1 (configuration not stated)	-10%	-3	-1	-16	0.9
COCCNC(=O)CCC1CCN(C/C=C/c2ccccc2OC)CC1	x	3	x	x	-0.6
Nc1ccccc1C#Cc1ccccc1	0%	2	-11	-23	1.5
O=C(NCc1ccc2c(c1)OCO2)c1ccccc1	3%	21	0	x	1.4
Cc1cc(C)nc(SCc2ccc(C(=O)N/N=C/c3ccco3)cc2)n1	0%	-2	-7	x	1.2
CS(=O)(=O)Nc1ccccc1C(=O)N1CCCC1	4%	3	10	-23	5.0
COC(=O)c1ccc(COC(=O)CNS(=O)(=O)c2ccccc2)cc1	2%	3	-1	x	-4.7
O=C(CCl)NNc1cccc(Cl)n1	5%	-11	-10	-11	1.2
CC1CCN(C(=O)Cn2c3ccccc3c3nc4n(c(=O)c32)CCCS4)CC1	x	-1	x	x	-3.3
CSc1ccccc1OCc1cc(C(=O)N2CCN(C3CCCC3)C(=O)C2)no1	x	8	x	x	2.3
COC(=O)c1ccc(N/C(=N/S(=O)(=O)c2ccccc2)c2ccccc2)cc1	-1%	3	-6	-44	-5.4
CC(=O)C1=NOC2C(=O)N(c3ccccc3)C(=O)C12 (configuration not stated)	x	-4	x	x	-1.0
CCOc1ccc(S(=O)(=O)N(C)c2ccc(OCC(=O)N3CCOCC3)cc2)cc1	-8%	2	9	3	0.2
COc1ccc2ccc(O)c(CN3CC=C(c4ccccc4)CC3)c2c1	7%	7	30*	x	-4.6
O=C(CSc1nnc(-c2n[nH]c3ccccc23)n1-c1ccccc1)Nc1cccc(Cl)c1	7%	-2	-5	-25	-0.8
O=C(NCc1ccco1)c1ccc2c(c1)S(=O)(=O)c1ccccc1C2=O	11%	1	x	x	-1.1
O=C(Nc1cccc(Cl)c1)N1CCC(CO)(CCOc2ccccc2)CC1	10%	-1	-9	x	6.9
Cc1cnc(NC(=O)Cc2cccs2)s1	3%	0	-4	x	-0.1
Cc1csc(NC(=O)C2CCCO2)n1 (configuration not stated)	1%	u	2	-28	0.5
Cc1ccc(S(=O)(=O)N/N=C\c2ccc([N+](=O)[O-])o2)cc1	1%	100	-7	-12	8.9
O=C1CN(c2nnnn2-c2ccccc2)CCN1	-1%	-13	-1	11	x
CCOC(=O)c1sc(N)c(C#N)c1COC(=O)CNC(=O)c1cc(OC)c(OC)c(OC)c1	-6%	5	-2	-23	-2.1
COCCN1C(=O)c2oc3cc(C)c(C)cc3c(=O)c2C1c1cccc(O)c1 (configuration not stated)	-1%	5	x	-5	2.1
CCCc1nc2oc(C(=O)c3ccccc3)c(N)c2c2c1COC(C)(C)C2	-3%	-1	3	-8	-2.2
CCCC(=O)Nc1ccc(C=C(C(C)=O)C(C)=O)cc1	2%	3	x	x	-1.3
CCc1nc(SCC(=O)Nc2ccc(F)cc2)c2c(=O)n(C)c(=O)n(C)c2n1	x	u	x	x	-0.2
O=C(NCc1ccccc1Cl)c1cccc(OC2CCN(C(=O)C3CC3)CC2)c1	x	-12	x	x	0.5
COC(=O)C1=CN(Cc2cccs2)C=C(C(=O)OC)C1c1cccc(Cl)c1	4%	-3	-10	x	-6.2
O=C(/C=C/c1cccc([N+](=O)[O-])c1)N1CCN(S(=O)(=O)c2cccs2)CC1	8%	-6	-5	x	2.7
O=C(CS(=O)(=O)Cc1ccccc1)Nc1ccc(Br)cc1F	x	-8	x	x	-1.4
O=C(CCc1nnc(C2CCCCC2)o1)N1CCN(C2CCCCC2)CC1	-24%	-5	-1	x	0.7
COc1ccc(/C=N/NC(=O)c2ccc3ccccc3c2)cc1OS(=O)(=O)c1ccc(NC(C)=O)cc1	-3%	16	-26	-21	-0.3
O=C(Oc1ccc2c(=O)c(Cl)coc2c1)c1cccnc1	0%	0	0	-14	6.5
C/C=C/C(=O)Nc1cccc(C2=NOC3(C2)C[C@@H](C(N)=O)N(C(=O)c2cc([N+](=O)[O-])cc([N+](=O)[O-])c2)C3)c1 (some centres not stated)	-2%	97	x	x	-1.3
O=C(CSc1nnc(-c2ccccc2)n1-c1ccccc1)c1ccc[nH]1	6%	-1	1	-7	-4.2
C=CCn1c(SCc2nc3ccccc3nc2C)nnc1-c1ccoc1C	-2%	4	9	5	1.7
O=C(COc1ccc(Cl)cc1Cl)NC(=S)Nc1ccccc1C(=O)O	4%	2	0	x	7.1
CCOC(=O)c1nc(Nc2ccc(C(C)=O)cc2)c2ccccc2n1	11%	-1	-2	x	3.9
Cc1ccc(-c2ccc(/C=C/C(=O)c3ccccc3)o2)cc1	20µM*	98	11	-44	8.5
Cc1ccc(S(=O)(=O)N(CC(O)CN2CCOCC2)c2cc(Cl)ccc2Cl)cc1 (configuration not stated)	-5%	2	3	-9	-0.3
CCn1nc(C(=O)Nc2ccccc2C)c(Cl)c1Cl	1%	8	2	1	-2.4
